Yeast UUG start = modulators of yeast start codon fidelity, primary screen, whole organism, S. cerevisiae, single point, plate reader; activity score, % at 18.7 µM; 350,000 tested, 0.13% active; S. cerevisiae UUG-firefly luciferase reporter, luminescence/redox ratio;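 active = replicate mean at a twofold rise or more, about +100% in these data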;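 also: firefly luciferase made from a UUG start codon reports start codon fidelity; reporter light over untreated wells divided by growth signal over untreated wells; some hits fall short of that in this replicate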
CSC inhib = cancer stem cell viability inhibitors, primary screen, luminescence; cancer stem cell-like cells viability; AID 2717, 2010; inhibition, % at 7.5 µM; 300,000 tested, 1.1% active;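 active = mean at 75% or more and at least half the replicates too; inconclusive = mean and replicates disagree; tested in HMLE shEcad cells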;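 also: 0% = median of negative and 100% = median of positive control wells; the first replicate is given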
Env fusion inh = inhibitors of HIV-1 Env-driven cell-cell fusion, primary screen, HeLa-JRFL effector, CEM21 target cells, luciferase; inhibition, % at 12.3 µM; 360,000 tested, 1.1% active; AID 651610, 2012;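 active = mean replicate inhibition score of at least 50 and every replicate individually at or above 50; inconclusive = only one of the two criteria met; inactive = mean below 50 and not all replicates reaching 50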;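 also: 0% = plate neutral controls and 100% = maraviroc near 300 nM; one replicate is shown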
PABP FP inh = PABP poly(A) RNA binding inhibitors, primary screen, biochemical, fluorescence polarization, uHTS; inhibition, % at 35 µM; AID 2014, 2009; 290,000 tested, 1% active; Polyadenylate-binding protein 1 (Homo sapiens), P11940;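 active = 50% or more with normal probe brightness, or confirmed in later tests; inconclusive = above 50% with abnormal brightness, or retests that disagree; inactive = below 50% or failed in later tests; about a fifth of its hits are not listed in these tables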;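 also: calls also rest on retests at 20 µM and on dose response follow-up; controls were probe without protein and protein plus probe with vehicle; some compounds called inactive have numbers as strong as hits; many hits fall short of the cut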
Target sequence (P11940 whole entry, looked up): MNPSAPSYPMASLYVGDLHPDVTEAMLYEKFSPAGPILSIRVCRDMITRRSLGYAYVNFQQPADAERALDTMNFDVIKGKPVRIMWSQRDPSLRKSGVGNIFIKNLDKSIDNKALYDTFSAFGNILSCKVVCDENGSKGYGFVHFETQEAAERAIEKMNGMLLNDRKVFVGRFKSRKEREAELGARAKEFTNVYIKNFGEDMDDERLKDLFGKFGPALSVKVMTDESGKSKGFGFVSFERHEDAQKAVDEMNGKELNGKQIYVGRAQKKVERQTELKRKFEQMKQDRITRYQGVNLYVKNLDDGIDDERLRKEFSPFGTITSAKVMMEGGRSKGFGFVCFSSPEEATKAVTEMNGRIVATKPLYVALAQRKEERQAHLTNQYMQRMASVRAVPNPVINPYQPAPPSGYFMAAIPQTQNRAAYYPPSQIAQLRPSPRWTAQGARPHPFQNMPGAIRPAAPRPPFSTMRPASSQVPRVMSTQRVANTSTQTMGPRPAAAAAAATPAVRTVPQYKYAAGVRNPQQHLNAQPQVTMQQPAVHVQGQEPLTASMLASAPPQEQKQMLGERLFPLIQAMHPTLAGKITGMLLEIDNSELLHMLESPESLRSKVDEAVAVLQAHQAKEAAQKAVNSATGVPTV
Rce1 inhib = yeast Rce1p protease inhibitors, primary screen, biochemical, fluorescence, cell-free homogeneous; CAAX prenyl protease 2 (Saccharomyces cerevisiae (strain ATCC 204508 / S288c)), Q03530; yeast membranes, quenched prenylated peptide cleavage fluorescence; calls only; 290,000 tested, 0.27% active; AID 2563, 2010;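 active = fall in fluorescence gain of 50% or more versus controls, with final raw signal at or below 3038400; inconclusive = same 50% fall but final raw signal above 3038400; inactive = fall in fluorescence gain under 50%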;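 also: plate controls were neutral control wells for no effect and wells lacking membranes for full effect; tested at 10 µM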
MT1-MMP act inh = blockers of MT1-MMP proenzyme processing, primary screen, HT1080 RFP-PRO-GFP cells, GFP/RFP fluorescence. GFP/RFP ratio change, % at 20 µM. Matrix metalloproteinase-14 (Homo sapiens), P50281. GFP/RFP ratio fluorescence, overnight; percent of plate control window, DMSO zero. 360,000 tested, 0.061% active;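 active = GFP/RFP ratio change of at least 30% with cell ATP level not reduced by more than half and red fluorescence within 50% of control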; also: strong numbers were not always called active
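Assay system: HT1080 RFP-PRO-GFP cells | Dosing: 20 µM single dose, 1% DMSO | Incubation: Cells overnight before dosing, compound overnight, 37 °C, 5% CO2 | Evaluation: GFP/RFP fluorescence ratio | Control set: DMSO-only wells and HT1080 RFP-L50D-GFP cell wells as references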
eIF4H FP inh = human eIF4H binding inhibitors, primary screen, translation initiation inhibitor project, biochemical, uHTS, fluorescence polarization; Eukaryotic translation initiation factor 4H (Homo sapiens), Q15056; eIF4H fluorescence polarization binding assay; inhibition, % at 35 µM; 290,000 tested, 0.94% active;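 active = 50% or more with normal probe brightness, or confirmed in later tests; inconclusive = above 50% with abnormal brightness, or retests that disagree; inactive = below 50% or failed in later tests; about a fifth of its hits are not listed in these tables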;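 also: calls also rest on retests at 20 µM and on dose response follow-up; 0% = protein and probe with vehicle and 100% = probe without protein; strong numbers were not always called active; many hits fall short of the cut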
MT1-MMP act inh RFP = further read-out of MT1-MMP act inh, marked with its call; RFP signal change, %; measured here: RFP expression control read;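 0 = vehicle wells; hits needed this value within 50% of zero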
Active calls of the source: *; i = inactive; ? = inconclusive; nt = not tested or not shown; & = joins results of further samples. Some of the compounds tested, so the mix of outcomes need not match the whole.

SMILES | Yeast UUG start | CSC inhib | Env fusion inh | PABP FP inh | Rce1 inhib | MT1-MMP act inh | MT1-MMP act inh RFP | eIF4H FP inh
Cc1c(Cl)cccc1NC(=O)C1Cc2ccccc2CN1C(=O)c1ccccc1 (stereo not drawn) | nt | 7 | -7 | 4 | i | -1 | -2 | -5
CC(N=C1NS(=O)(=O)c2ccccc21)C(=O)NCCCc1ccccc1 (stereo not drawn) | 2 | 6 | -3 | -3 | i | 2 | 1 | -9
CCS(=O)(=O)Nc1cccc(C2=NN(S(=O)(=O)c3ccc(C)cc3)C(c3cccs3)C2)c1 (stereo not drawn) | -8 | -6 | -19 | -4 | i | -2 | -4 | -3
O=C(NCc1ccc2c(c1)OCO2)NC1CCCCC1 | nt | -5 | 0 | -6 | i | -5 | 0 | -6
COCCNc1ncnc2c1cnn2Cc1ccccc1Cl | -15 | 10 | 14 | -6 | i | 2 | 0 | -2
Cc1ccc(NC(=O)CCS(=O)(=O)c2cccc3nonc23)c(Br)c1 | -14 | -2 | 3 | -7 | i | -2 | 2 | -2
Cc1ccc(-c2c(C#N)c(N)n(-c3ccccc3C)c(=O)c2C#N)cc1 | -2&-6 | nt | 0 | nt | nt | -2 | -1 | nt
O=C(c1cc2c(s1)CCCC2)N1CCN(S(=O)(=O)c2ccccc2)CC1 | -12 | -11 | 9 | nt | i | 2 | 0 | nt
Cn1nc(-c2ccccc2)c(C(=O)Nc2ccc(Cl)cc2)c1Cl | -19 | -3 | nt | -2 | i | 0 | 1 | -8
Cc1cc(NC(=O)c2ccc(F)cc2)no1 | -9 | -11 | -51 | -8 | i | -1 | -2 | -7
COc1ccc(-c2cc(C(=O)Nc3cc(S(=O)(=O)N4CCOCC4)ccc3N3CCOCC3)c3ccccc3n2)cc1 | nt | 10 | 21 | -13 | i | -1 | 0 | -10
O=C(CSc1nnc2c(n1)[nH]c1ccc(S(=O)(=O)N3CCOCC3)cc12)Nc1ccc(F)c(F)c1 | nt | -4 | -4 | 22 | i | -3 | -18 | 2
COCCn1c(SCC(=O)Nc2ccc(S(N)(=O)=O)cc2)nc2ccccc21 | nt | -7 | nt | -2 | i | 6 | 3 | 2
CC(=O)Nc1cccc(OCC(=O)Nc2ccc(F)cc2)c1 | -18 | -2 | -21 | 8 | i | 1 | 3 | 10
COP(=O)(OC)c1nc(-c2ccc(C)cc2)oc1N1CCCCC1 | nt | -12 | 1 | 10 | ? | -3 | 1 | -4
COc1ccc(NC(=O)CCNC(C)=O)cc1NS(=O)(=O)c1ccc(F)cc1 | -13 | -7 | -32 | -5 | i | 0 | 3 | 9
CSCSC1=C(C#N)C(c2ccccc2Cl)C(C(C)=O)=C(C)N1 (stereo not drawn) | -17 | 11 | nt | 23 | i | -22 | -41 | -1
CSCCC(NC(C)=O)C(=O)Oc1ccc2c3c(c(=O)oc2c1)CCCC3 (stereo not drawn) | -11&1 | nt | -106 | 12 | ? | -1 | 5 | -5
Cc1ccccc1NC(=O)CCN1CCCC1 | nt | -3 | -1 | -7 | i | 2 | 5 | -8
CCn1cc(C2N3CC4(C)CN2CC(C)(C3)C4=O)c2ccccc21 (stereo not drawn) | -15 | -9 | 1 | 4 | i | 1 | 2 | -4
COc1ccc(/C=C/C(=O)NC(CCSC)C(=O)O)cc1 (stereo not drawn) | nt | 8 | 6 | 2 | i | -1 | 3 | 9
O=C(c1ccc(S(=O)(=O)Nc2ccccc2Cl)cc1)N1CCCC1 | -13 | -8 | -8 | nt | nt | 5 | 2 | nt
CCOc1ncccc1C(=O)Nc1ccc(Cl)c(S(=O)(=O)N2CCCC2)c1 | 7 | 7 | -6 | 5 | i | 6 | -17 | 2
Cc1cc(NC(=O)c2ccc(Cl)c(S(=O)(=O)N3CCOCC3)c2)no1 | -11 | -8 | -1 | 8 | i | -3 | 0 | -5
Cn1cnc([N+](=O)[O-])c1SCCO | -15 | -6 | -3 | -1 | i | 1 | 3 | 4
Cn1c(=O)c2c(nc(CN3CCN(C(=O)c4ccco4)CC3)n2CC(=O)C(C)(C)C)n(C)c1=O | -6 | -13 | -7 | -2 | i | 2 | 1 | -4
CC(NC(=O)c1ccco1)C1COc2ccccc2O1 (stereo not drawn) | -4 | -2 | nt | 13 | i | -1 | 7 | 29
Cc1c(CCOC(=O)c2ccc([N+](=O)[O-])cc2)sc[n+]1CC(=O)c1ccccc1 | nt | -3 | 3 | -2 | i | -1 | 2 | 4
CCCc1nnc(NC(=O)CCC(=O)NC2CCCC2)s1 | -7 | 3 | -1 | 5 | i | 3 | 0 | 6
COc1ccccc1NC(=S)N(Cc1ccc(C)cc1)Cc1ccccn1 | -13 | 3 | -4 | 11 | i | -3 | -5 | -2

The last two records of the section above come first, to join the parts:
SMILES | Yeast UUG start | CSC inhib | Env fusion inh | PABP FP inh | Rce1 inhib | MT1-MMP act inh | MT1-MMP act inh RFP | eIF4H FP inh
CCCc1nnc(NC(=O)CCC(=O)NC2CCCC2)s1 | -7 | 3 | -1 | 5 | i | 3 | 0 | 6
COc1ccccc1NC(=S)N(Cc1ccc(C)cc1)Cc1ccccn1 | -13 | 3 | -4 | 11 | i | -3 | -5 | -2
NC(=O)c1ccc(NC(=O)c2ccc(COc3ccc(F)cc3)o2)cc1 | -13 | -4 | nt | nt | nt | 4 | -3 | nt
O=C(CCC(=O)Nc1ccc(Br)cc1)N/N=C/c1ccc(O)cc1 | -13 | 12 | -3 | 2 | i | -1 | 0 | 2
CCC(C)/C(C)=N/NC(=O)c1ccc(COc2ccc(Cl)c(C)c2)cc1 (stereo not drawn) | nt | 24 | nt | -8 | nt | 1 | 0 | -11
Cc1ccccc1C(=O)NC(=S)NC1CCS(=O)(=O)C1 (stereo not drawn) | -13 | 4 | nt | 5 | i | -5 | -1 | 1
Cc1ccc(Cl)cc1NC(=O)NCc1cccnc1 | 3 | -8 | -4 | -10 | i | 0 | 4 | 3
COc1ccc(/C=N\NC(=O)c2ccccc2OC)cc1COc1ccccc1C | -11 | -16 | 16 | -4 | i | 0 | -6 | -8
CCOCC(=O)Nc1cc(Cl)c(OC)cc1OC | nt | -6 | nt | -7 | i | nt | nt | 6
COc1nc(-c2ccccc2)nnc1-c1ccccc1 | nt | nt | -114 | -10 | i | -3 | 0 | -8
COC(=O)C[C@@H]1C[C@@H]2c3cc(NC(=O)NC4CCCCC4)ccc3O[C@@H]2[C@H](CO)O1 | -8&-19 | nt | -18 | nt | nt | 4 | 3 | nt
CC(=O)Nc1ccc(S(=O)(=O)N2CCN(C(=O)c3ncoc3-c3cccc(C)c3)CC2)cc1 | 38 | 10 | -1 | -10 | i | -3 | -4 | 2
Cc1c(Cl)cccc1NC(=O)CCCN1C(=O)CCC1=O | -12 | -5 | 37 | -3 | i | 6 | -3 | -3
Cc1cc(C)c(-c2cc(C(=O)Nc3c(C)n(C)n(-c4ccccc4)c3=O)[nH]n2)c(O)c1 | -6 | -12 | 1 | -5 | i | 8 | 5 | -14
CCOC(=O)C1CCN(S(=O)(=O)c2c[nH]c(=O)[nH]c2=O)CC1 | -15 | -4 | -13 | nt | i | 5 | 1 | nt
CC(C)[C@H](NC(=O)c1ccco1)C(=O)N(C)Cc1c(F)cccc1Cl | -8 | -9 | 2 | 5 | i | -6 | -4 | 4
C#CC(=O)N(c1ccc(OC)c(OC)c1)C(C(=O)NC1CCCC1)c1cccs1 (stereo not drawn) | -9 | 10 | nt | -10 | i | -25 | -32 | -6
NC(=O)C1CCN(CC(=O)Nc2ccccc2N2CCOCC2)CC1 | -24 | -9 | -3 | 0 | i | 0 | 6 | 12
CC(C)C[C@@H](C(=O)NCC1CCCO1)N1C(=O)N2CCc3c([nH]c4ccccc34)[C@@]2(C)C1=O (stereo partly drawn) | -4 | -4 | nt | 0 | i | -1 | 1 | -8
Cc1cc(Br)ccc1NC(=O)C1CSC2(C)CCC(=O)N12 (stereo not drawn) | -15 | -7 | nt | nt | i | 3 | 2 | nt
CC#CC(=O)N1CCC(n2nccc2NC(=O)c2ccc3c(c2)OCO3)CC1 | -15 | 2 | -73 | 1 | i | 5 | 7 | 38
O=C(Cn1c(-c2cncs2)nc2ccccc21)NC1CCCC1 | -8 | 3 | nt | 6 | i | 0 | 5 | -5
CC1(C)NC(=O)N(CC(=O)Nc2ccc(-n3cnnn3)cc2)C1=O | -18 | 12 | nt | nt | nt | -4 | 3 | nt
COc1ccc(C(C(=O)NC2CCCC2)N(CCO)C(=O)Cn2nnc(-c3ccc(C)o3)n2)cc1 (stereo not drawn) | -9 | -15 | 8 | 10 | i | 0 | 1 | -7
CCOc1ccc(CN2CCN(Cc3cc4ccccc4o3)CC2CCO)cc1 (stereo not drawn) | 10 | -4 | 1 | 1 | i | 4 | 4 | -4
CC(=O)Nc1sc(C)c(C)c1C(=O)OCC(=O)N(CC(C)C)c1c(N)n(Cc2ccccc2)c(=O)[nH]c1=O | -5 | 81* | -5 | nt | i | -40 | -24 | nt
O=C(Nc1c(-c2ccccc2)nc2ccccn12)c1ccccc1 | -11 | 4 | 0 | 7 | i | -5 | -4 | 0
CC(C)[C@H](NS(=O)(=O)c1ccccc1)C(=O)OCC(=O)NC(=O)c1cccn1C | nt | 15 | nt | 2 | i | 3 | 7 | -4
COc1ccc2[nH]cc(C(=O)CN3CCCC(C)C3)c2c1 (stereo not drawn) | 1 | -9 | nt | -7 | i | 10 | 12 | 7
O=C(OC(C(=O)c1c[nH]c2ccccc12)c1ccccc1)c1cnccn1 (stereo not drawn) | 3 | -2 | -8 | -4 | i | 0 | 2 | -5
CCN(CC(=O)NCc1cccs1)C(=O)c1ccccc1F | nt | -4 | 5 | -9 | i | -2 | -2 | -3
CCC1CCCCN1C(=S)NC(=O)c1ccc([N+](=O)[O-])cc1 (stereo not drawn) | nt | nt | -33 | 2 | i | 6 | 3 | 2
Cc1coc2cc3oc(=O)ccc3cc12 | -10 | 10 | 5 | 1 | i | -1 | 0 | 7
O=C(NC(=S)NCc1ccccc1)c1cccnc1 | -18 | -7 | -7 | 5 | i | 0 | 1 | 9
Cn1cccc1C(=O)NC(=O)COC(=O)C12CC3CC(CC(O)(C3)C1)C2 | nt | -3 | nt | 0 | i | 4 | 4 | -2
O=C(CC(=O)c1ccccc1)Nc1ccccc1 | -21 | 1 | -49 | nt | i | 1 | 2 | nt
CC(=O)NCCC(=O)Nc1sc2c(c1-c1nc3ccccc3[nH]1)CCCC2 | nt | -20 | nt | -5 | i | 5 | -4 | -5
Cc1ccc2c(Cl)c(C(=O)NCC(c3ccco3)N3CCCC3)sc2c1 (stereo not drawn) | -8 | -4 | -6 | -8 | i | 5 | 3 | 0
CCCCCCc1ccc(N2C[C@H](CCCCC)[C@@H](CC(=O)NCc3ccccc3)C2=O)cc1 | 4 | 31 | -30 | 2 | i | -10 | -13 | -1
COc1cc(OC)cc(-c2c(-c3ccc(F)cc3)c3cc(-c4cccc5[nH]ccc45)ccc3n2C)c1 | -8 | 32 | -1 | nt | nt | -17 | -4 | nt
CCn1ncc(/C=C/C(=O)NCc2cnn(C)c2C)c1C | -9 | -8 | -7 | -2 | i | 2 | -3 | -3

Screening results (PubChem)
